Bioassay records deposited in PubChem BioAssay by several laboratories.
MT1-MMP act inh: MT1-MMP (human) activation inhibition | HT1080 RFP-PRO-GFP cells, GFP/RFP ratio fluorescence, overnight; percent of plate control window, DMSO zero | P50281 | 360,000 compounds, 0.061% hits | GFP/RFP ratio change, % at 20 µM;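 active means GFP/RFP ratio change of at least 30% with cell ATP level not reduced by more than half and red fluorescence within 50% of control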; further: strong numbers were not always called active
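Test system: HT1080 RFP-PRO-GFP cells; Benchmarks: DMSO and RFP-L50D-GFP cell wells; Timing: cells overnight before dosing, compound overnight, 37 °C, 5% CO2; Compound: one 20 µM compound dose with 1% DMSO; Read-out: GFP/RFP fluorescence ratio.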
PABP FP inh: PABP-poly(A) binding inhibition | 290,000 compounds, 1% hits | PABP-poly(A) RNA binding, fluorescence polarization | inhibition, % at 35 µM;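 active means 50% or more with normal probe brightness, or confirmed in later tests; inconclusive means above 50% with abnormal brightness, or retests that disagree; inactive means below 50% or failed in later tests; about a fifth of its hits are not listed in these tables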;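 further: calls also rest on retests at 20 µM and on dose response follow-up; controls were probe without protein and protein plus probe with vehicle; some compounds called inactive have numbers as strong as hits; many hits fall short of the cut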
Target sequence (P11940 whole entry, looked up): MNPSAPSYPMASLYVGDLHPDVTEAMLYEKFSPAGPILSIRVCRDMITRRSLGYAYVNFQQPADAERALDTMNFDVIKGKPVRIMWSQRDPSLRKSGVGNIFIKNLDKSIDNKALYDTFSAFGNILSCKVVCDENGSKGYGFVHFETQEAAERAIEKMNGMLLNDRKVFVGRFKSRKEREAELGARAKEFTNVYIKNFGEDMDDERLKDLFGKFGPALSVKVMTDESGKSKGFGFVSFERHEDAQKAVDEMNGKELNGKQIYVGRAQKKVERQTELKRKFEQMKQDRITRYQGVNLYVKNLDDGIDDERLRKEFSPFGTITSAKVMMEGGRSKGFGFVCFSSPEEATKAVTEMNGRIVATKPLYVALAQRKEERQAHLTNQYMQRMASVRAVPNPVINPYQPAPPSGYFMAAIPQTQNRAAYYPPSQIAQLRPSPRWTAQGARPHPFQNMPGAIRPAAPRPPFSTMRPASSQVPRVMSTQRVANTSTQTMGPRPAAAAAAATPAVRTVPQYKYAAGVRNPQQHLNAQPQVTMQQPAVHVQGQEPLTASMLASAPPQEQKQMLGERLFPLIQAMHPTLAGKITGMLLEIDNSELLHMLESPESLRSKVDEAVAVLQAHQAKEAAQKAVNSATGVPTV
HIV Env fusion: blocks HIV Env-driven cell-cell fusion. HeLa-JRFL Env/CEM21 cell fusion, luciferase. 360,000 compounds, 1.1% hits. inhibition, % at 12.3 µM;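 active means mean replicate inhibition score of at least 50 and every replicate individually at or above 50; inconclusive means only one of the two criteria met; inactive means mean below 50 and not all replicates reaching 50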;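 further: 0% = plate neutral controls and 100% = maraviroc near 300 nM; one replicate is shown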
Rce1 inh: yeast Ras-converting enzyme inhibition; calls only; yeast membranes, quenched prenylated peptide cleavage fluorescence; 290,000 compounds, 0.27% hits; AID 2563;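 active means fall in fluorescence gain of 50% or more versus controls, with final raw signal at or below 3038400; inconclusive means same 50% fall but final raw signal above 3038400; inactive means fall in fluorescence gain under 50%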;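 further: plate controls were neutral control wells for no effect and wells lacking membranes for full effect; tested at 10 µM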
Target sequence (Q03530 whole entry, looked up): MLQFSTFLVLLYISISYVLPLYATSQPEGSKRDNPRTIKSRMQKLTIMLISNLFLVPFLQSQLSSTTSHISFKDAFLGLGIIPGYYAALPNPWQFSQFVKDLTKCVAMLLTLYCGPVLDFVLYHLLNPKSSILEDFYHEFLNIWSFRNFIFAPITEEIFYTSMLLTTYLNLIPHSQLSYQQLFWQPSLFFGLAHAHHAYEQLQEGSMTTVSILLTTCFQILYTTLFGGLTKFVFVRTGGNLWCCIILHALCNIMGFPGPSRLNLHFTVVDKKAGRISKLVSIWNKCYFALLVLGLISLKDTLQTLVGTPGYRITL
Yeast UUG start: modulators of start codon recognition fidelity in yeast | activity score, % at 18.7 µM | 350,000 compounds, 0.13% hits | S. cerevisiae UUG-firefly luciferase reporter, luminescence/redox ratio;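 active means replicate mean at a twofold rise or more, about +100% in these data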;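 further: firefly luciferase made from a UUG start codon reports start codon fidelity; reporter light over untreated wells divided by growth signal over untreated wells; some hits fall short of that in this replicate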
eIF4H inh: inhibitors of RNA binding by human eIF4H. eIF4H fluorescence polarization binding assay. 290,000 compounds, 0.94% hits. inhibition, % at 35 µM. Q15056. AID 2012;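 active means 50% or more with normal probe brightness, or confirmed in later tests; inconclusive means above 50% with abnormal brightness, or retests that disagree; inactive means below 50% or failed in later tests; about a fifth of its hits are not listed in these tables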;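 further: calls also rest on retests at 20 µM and on dose response follow-up; 0% = protein and probe with vehicle and 100% = probe without protein; strong numbers were not always called active; many hits fall short of the cut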
CSC inhib: cancer stem cell inhibition. cancer stem cell-like cells viability, luminescence. inhibition, % at 7.5 µM. 300,000 compounds, 1.1% hits. AID 2717;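 active means mean at 75% or more and at least half the replicates too; inconclusive means mean and replicates disagree; tested in HMLE shEcad cells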;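 further: 0% = median of negative and 100% = median of positive control wells; the first replicate is given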
eIF4H inh retest: also measured in eIF4H inh; calls as there; inhibition, %; compound at 20 µM; confirmation average;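 mean of two retest wells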
PABP FP inh retest: second read-out of PABP FP inh, no call of its own (marks repeat the call); inhibition, %; compound at 20 µM; confirmation repeats;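 mean of two retest wells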
MT1-MMP act inh RFP: also measured in MT1-MMP act inh; calls as there; RFP signal change, %; measured here: RFP expression control read;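 0 = vehicle wells; hits needed this value within 50% of zero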
* hit, by the source's call; i = inactive; ? = inconclusive; · = not tested or not shown. The list is partial (hit frequency here may not be typical).

SMILES	MT1-MMP act inh	MT1-MMP act inh RFP	PABP FP inh	HIV Env fusion	Rce1 inh	Yeast UUG start	eIF4H inh	CSC inhib	others
Cc1ccccc1-n1nnnc1SCC(C)C	3	0	7	12	i	·	-5	-2
O=C(Nc1ccccc1N1CCOCC1)c1cc2c(s1)CCCCC2	2	1	33	-6	i	·	-2	62
O=C(Nc1nccs1)c1cc(-c2ccccc2)nc2ccccc12	3	0	-10	-12	i	·	-12	14
Cc1ccc(/C=C/C(O)=C2/C(=O)N(C)C3(C)CC2c2ccccc2O3)cc1 (centres undefined)	-12	-17	1	-67	i	-14	-5	52
O=C(NCCN1CCCCC1)c1ccc(=O)oc1	-4	0	19	-12	i	-3	4	-4
CC(C)[C@H](NC(=O)c1ccccc1Cl)C(=O)OCC(=O)N1CCCCC1	-1	7	·	-1	·	-24	·	-2
c1nnc(NC2=NCCC2)s1	2	0	-1	·	i	-37	-3	6
CCc1ccccc1-n1c(-c2ccncc2)n[nH]c1=S	1	9	-3	·	i	·	-2	-9
O=C(/C=C/c1ccc(F)cc1)NC(Cc1c[nH]c2ccccc12)C(=O)O (centres undefined)	0	2	1	2	i	-13	-4	-10
COc1cc(NS(=O)(=O)c2ccc(NC(=O)C3CCCO3)cc2)nc(OC)n1 (centres undefined)	4	2	-5	-68	i	0	1	-1
CCOc1ccc(Cn2c3ccc(OC)cc3c3nc4ccccc4nc32)cc1	-113	0	6	-5	·	-5	92	64	eIF4H inh retest=4;PABP FP inh retest=-2
O=C(N1CCOCC1)C12CCC3CC(CC(C3)C1)C2	3	7	-8	·	i	11	1	-3
COc1cccc(N=c2oc3cc(O)ccc3cc2C(=O)NCC2CCCO2)c1 (centres undefined)	-15	-11	-7	-4	i	-5	-11	18
COc1cc(C2CC(=O)Oc3cc(O)ccc32)cc(OC)c1OC (centres undefined)	2	4	·	34	·	-20	·	·
CCNC(=O)NC(=O)C(C)SCc1ccccc1C (centres undefined)	2	3	1	20	i	-11	-4	-12
COc1ccc(S(=O)(=O)N(Cc2ccco2)Cc2cc3ccccc3[nH]c2=O)cc1	1	-8	-1	-10	i	-8	-3	9
O=c1c2cc(Br)ccc2nc2n1CCCCC2	-6	-6	2	·	i	-19	-12	9
CNS(=O)(=O)c1ccc(CCC(=O)N2CCOCC2)cc1	-2	0	·	9	i	-7	·	-11
CCCN(CCO)Cc1cccc(Cl)c1	-3	5	11	·	i	-11	-6	-17
CCOCC(=O)Nc1ccc2c(c1)OCCO2	9	10	-1	-231	i	-13	-2	-10
COc1cccc(C(C#N)N2CCCCC2)c1O (centres undefined)	0	6	-1	·	i	-18	-4	-2
COc1cccc(C(=O)/C=C/Nc2cc(C)ccc2O)c1	-6	-16	-9	-169	i	-22	-14	0
Cc1cccc(NS(=O)(=O)c2cnc[nH]2)c1	0	4	-4	0	i	·	-4	-4
CC(=O)N1CCc2cc(S(=O)(=O)NCCC(=O)N3CCN(Cc4ccccc4)CC3)ccc21	8	-3	-7	23	·	-7	-2	·
CC1Cc2cc(/C(O)=C3/C(=O)C(=O)N(CC4CCCO4)C3c3ccco3)ccc2O1 (centres undefined)	0	-1	24	·	i	-16	27	-14
CN(C)c1ccc(CNn2cnnc2SCC(=O)NC(C)(C)C)cc1	-3	2	29	14	i	·	22	-3
CC(=O)c1nc2ccccc2n1Cc1ccccc1	4	3	-3	-3	i	-13	-4	7
CCOC(=O)c1nnc(-c2ccccc2)o1	-2	8	8	2	i	-11	5	-8
COc1ccc(OC)c(-c2csc(NC(=O)CSc3ccc([N+](=O)[O-])cc3)n2)c1	-1	-1	-11	-5	·	-10	-10	40
Cc1ccc(C(=O)N2CCC(Cc3ccccc3)CC2)cc1[N+](=O)[O-]	1	-5	-2	5	i	-5	-2	0
Cc1nnc(SCC(=O)NC2CCS(=O)(=O)C2)n1Cc1ccccc1 (centres undefined)	0	2	4	7	i	3	4	-34
CCOc1ccc2[nH]cc(C(=O)NCc3ccc(F)cc3)c(=O)c2c1	5	-16	-2	-6	i	6	-10	44
CCn1c(CC(=O)Nc2ccc(F)cc2)nnc1SCC(=O)Nc1nnc(C)s1	2	4	0	-2	i	·	8	1
CN(C(=O)CS(=O)(=O)Cc1ccccc1Cl)c1ccccc1	3	6	-6	4	i	-12	2	4
O=C(NCc1ccco1)Oc1ccccc1	-3	7	-3	-53	i	-15	-1	-5
Cn1ncc(Cl)c1C(=O)N1CCN(c2cccc(Cl)c2)CC1	4	0	4	·	i	5	4	3
CCC(C)(C)C1CCC(NC(=O)N2CCN(c3ccccc3O)CC2)CC1 (centres undefined)	1	-3	-7	1	i	-5	-11	6
CSc1cccc(NC(=O)COC(=O)C2(c3ccccc3)CC2)c1	8	6	·	4	·	-6	·	-11
Cc1ccccc1NCC(=O)N/N=C\c1ccc([N+](=O)[O-])s1	-3	-6	10	-4	i	-3	13	·
CS(=O)(=O)N1CCC2CC1c1cc(-c3ccccc3)ccc12 (centres undefined)	-2	-1	·	5	·	8	·	·
CCn1c(C)[n+](CCOC(C)=O)c2cc(Cl)c(Cl)cc21	-2	-2	62*	-6	i	·	0	-7
COc1cccc(/C=N/Nc2nc(-c3cccnc3)nc3ccccc23)c1	1	-2	?	7	i	·	?	1
COC(=O)C(NC(C)=O)(Nc1nc2ccc(C)cc2s1)C(F)(F)F (centres undefined)	-2	-4	-2	-50	i	-23	-2	-14
Cc1ccccc1NC(=O)CSc1nc(COc2ccccc2)nc2ccccc12	-6	-10	0	·	·	-12	-3	·
CCN1C(=O)[C@@H]2[C@H](C1=O)[C@@H]1C[C@H]3C(=O)N(CC)C(=O)[C@H]3[C@@H]3C1=C(C(=O)N1C(=O)OC(=NCC4CC4)[C@]31C)[C@@H]2C	0	7	-1	22	i	0	-12	2

Three records drawn at random from the list so far, as already listed:
SMILES	MT1-MMP act inh	MT1-MMP act inh RFP	PABP FP inh	HIV Env fusion	Rce1 inh	Yeast UUG start	eIF4H inh	CSC inhib	others
COc1ccc(OC)c(-c2csc(NC(=O)CSc3ccc([N+](=O)[O-])cc3)n2)c1	-1	-1	-11	-5	·	-10	-10	40
Cc1ccc(C(=O)N2CCC(Cc3ccccc3)CC2)cc1[N+](=O)[O-]	1	-5	-2	5	i	-5	-2	0
COc1ccc(S(=O)(=O)N(Cc2ccco2)Cc2cc3ccccc3[nH]c2=O)cc1	1	-8	-1	-10	i	-8	-3	9

(next part)
SMILES	MT1-MMP act inh	MT1-MMP act inh RFP	PABP FP inh	HIV Env fusion	Rce1 inh	Yeast UUG start	eIF4H inh	CSC inhib	others
CCOc1ccc(S(=O)(=O)N2CCN(c3ccc(OC)cc3)CC2)c2cccnc12	3	0	-6	-29	i	-13	-6	-16
COc1cc(NC(=O)Nc2ccc3c(c2)OCO3)cc(OC)c1OC	4	1	7	13	i	-19	-6	-24
COc1ccc(C2C(C(=O)c3cccs3)=C(O)C(=O)N2c2nnc(C)s2)cc1OC (centres undefined)	-75	6	?	·	i	-4	?	-5
O=C(NCCc1ccccc1Cl)C1CC(=O)N(C2CCCCC2)C1 (centres undefined)	-1	-3	0	5	i	0	2	-10
COc1ccc(Cl)cc1NC(=O)COC(=O)CNC(=O)C1CCCCC1	3	2	·	1	·	-25	·	-14
COc1ccc(CCNCC(O)COc2c(C)cccc2C)cc1OC (centres undefined)	-1	2	-6	-2	i	-15	5	-3
CCOC(=O)C1=CC[C@H]2c3c(c4ccc(OC)cc4n3C)C(=O)C1N2S(=O)(=O)c1ccc(C)cc1	-2	-14	·	22	·	-9	·	38
Cc1cc(C)cc(SCc2noc(C(=O)NCC3CCCO3)c2C(=O)O)c1 (centres undefined)	4	3	3	18	i	-13	-12	-8
COc1ccccc1C(=O)NCCc1nc2ccccc2[nH]1	5	3	1	·	i	-15	-5	-9
CCN(C1CCS(=O)(=O)C1)S(=O)(=O)c1ccc2ccccc2c1 (centres undefined)	1	-3	·	2	i	-1	·	-9
Cc1ccsc1C(=O)N1CCCC(C(=O)c2cc(F)ccc2F)C1 (centres undefined)	-2	-3	-5	9	i	-12	-3	-13
Cc1cc(NC(=O)c2cc3ccccc3o2)ccc1NC(=O)c1ccccc1	-1	-7	-1	-132	i	2	-4	18
CCOc1ccc2c(c1)C(NC(C)=O)C(=O)N2CCN1CCOCC1 (centres undefined)	2	4	-5	-5	i	-4	-15	-6
Cc1c(C(=O)Nc2cnccn2)oc2ccccc12	-2	-2	0	·	i	-9	10	·
O=[N+]([O-])c1cc(S(=O)(=O)Nc2ccccc2)ccc1NCc1ccccc1	-2	-7	2	·	i	-2	-4	·
CC(C)c1ccccc1N=C1SCCN1C1CCS(=O)(=O)C1 (centres undefined)	-1	-2	0	·	i	-9	-1	-5
O=C(NC(=S)Nc1ccccc1N1CCOCC1)c1ccccc1F	1	1	-2	·	i	-3	-11	15
CC[n+]1c(/C=C/N(C)c2ccccc2)n(-c2ccccc2)c2ccc(-c3nc4ccccc4s3)cc21	-42	-34	1	·	i	3	-2	102*
Nc1nc(SCC(=O)Nc2cccc(S(=O)(=O)N3CCCCCC3)c2)n[nH]1	3	-8	-6	11	i	·	0	-5
COc1ccc(N2C(=O)CC(N3CCN(c4ccccc4)CC3)C2=O)cc1 (centres undefined)	2	1	9	11	i	-11	7	-22
O=C(COC(=O)c1cncc(Br)c1)NCc1ccccc1	0	3	-2	-8	i	·	14	-8
Cc1cc(C)n(C(C)CC(=O)Nc2ccc3c(c2)OCO3)n1 (centres undefined)	1	5	12	-7	i	1	2	-9
CC(=O)CSc1ccc(-c2nc3cc(C)c(C)cc3[nH]2)cn1	11	2	-2	51	i	·	-7	16
CC(=O)c1ccc(S(=O)(=O)NCCc2cn3ccc(C)cc3n2)cc1	-1	-4	-6	29	i	-11	11	-17
O=C1CCCC2=C1C(c1cccs1)n1nc(SCc3ccccc3)nc1N2 (centres undefined)	-30	-32	-5	-46	i	-11	-5	-1
Cc1cc(OCCCN2CCN(Cc3ccccc3)CC2)ccc1[N+](=O)[O-]	0	0	8	21	i	·	6	14
Cc1nnc2sc(SCC(=O)Nc3nccs3)nn2c1=O	2	3	0	-2	i	-6	0	-5
O=C(Nc1ccccc1C(=O)NCC1CCCO1)c1ccccc1F (centres undefined)	0	1	2	7	i	-2	-6	0
CC(=O)Nc1ccc(-c2ccnc3c2CC(C)(C(=O)Nc2ccc(Cl)cc2)O3)cc1 (centres undefined)	0	-6	·	2	·	-16	·	·
O=C(Nc1ccc(-c2noc(COc3ccccc3Cl)n2)cc1)c1ccco1	1	-10	6	·	i	-18	-3	2
C/C(CC(=O)Nc1cc(Cl)ccc1Cl)=N\NC(=O)c1ccccc1Br	-2	5	15	19	i	·	11	-2
O=C(CSc1ccc2c(c1)OCCO2)Nc1cccc(S(=O)(=O)N2CCCCC2)c1	-6	0	0	-50	i	-22	-6	2
COc1ccc(C(=O)Nc2c3c(nn2-c2ccc([N+](=O)[O-])cc2)CS(=O)(=O)C3)cc1	0	-1	2	-1	i	-1	-15	-6
CCOC(=O)C1=CCN(S(=O)(=O)c2ccc(C)cc2)C1c1ccccc1F (centres undefined)	1	-2	·	8	·	-4	·	·
O=C(CC(c1ccccc1)c1ccccc1)NCCO	-5	-2	-1	·	i	-1	-4	-1
CC(C)Cn1c(CCCNC(=O)c2ccco2)nc2ccccc21	-3	-2	·	9	i	19	·	14
